PrP UTR inh: inhibition of PrP 5' UTR reporter expression | AID 488862 | inhibition, % (test concentration not listed) | cell-based PrP 5' UTR mRNA reporter, plate reader | actives 0.35% (n = 340,000);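 active means every replicate at 50% or more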;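 further: 0 = median of the neutral control wells; tested in H4 reporter cells; numbers are from one replicate; inactives centre near -14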
Bead autofluor: compound fluorescence in toxin protease inhibitor counterscreen | compound autofluorescence counterscreen, microsphere flow cytometry; stronger effect = higher value | fluorescence intensity (concentration not given with the values) | actives 3.1% (n = 360,000) | AID 624483;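 active means at least 3 SD above the mean of all compounds, about 16000 in these data; inconclusive means too few beads counted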;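 further: 100 nL of 1 mM stock went into each well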
Mtb hypoxia inh: inhibitors of hypoxia-regulated fluorescent reporter in Mycobacterium tuberculosis; M. tuberculosis hypoxia-regulated fluorescent reporter, fluorescence; fluorescence inhibition, % (test concentration not listed); actives 0.1% (n = 300,000); AID 1159583;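 active means 35 to 45% if threefold the growth effect, above 45% if 1.5-fold the growth effect; inactive means the rest, general growth blockers included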;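 further: wells of about 50 µL received 100 nL stock; 0% = vehicle wells and 100% = reference inhibitor wells; whole bacteria with a GFP reporter of the hypoxia response; strong numbers were not always called active; many hits fall short of the cut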
ugtP null kill: kills S. aureus RN4220 lacking UgtP; actives 0.54% (n = 330,000); AID 1259309; S. aureus RN4220 ugtP deletion, OD600 growth, 16 h; some inactives read as strong as hits; growth inhibition, % (concentration not given with the values);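 active means z-score under -3 and OD600 up to 0.15 on both plates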;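 further: plate controls were untreated wells for no effect and antibiotic for full effect; wells of about 80 µL received 100 nL stock; the first replicate is given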
BJeLR viability: kills HRASV12-expressing BJeLR cells. inhibition, % (concentration not given with the values). AID 1554. BJeLR (HRASV12) viability, CellTiter-Glo ATP luminescence, 48 h; reference of the scale not given here. actives 0.17% (n = 300,000);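 active means replicate mean above 50%; inconclusive means above 50% but judged a plate artefact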;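 further: 50 nL library stock added to about 25 µL; numbers are from one replicate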
RN4220 kill: S. aureus RN4220 growth inhibition; OD600, 16 h; inhibition, % (concentration not given with the values); actives 0.33% (n = 330,000); AID 1259311;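 active means z-score of -3 or lower and OD600 up to 0.18 on both plates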;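 further: plate controls were untreated cells for no effect and reference antibiotic for full effect; stock transfer was 100 nL into about 80 µL; one replicate is shown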
Mtb hypoxia inh growth: further read-out of Mtb hypoxia inh, marked with its call; growth inhibition, %; measured here: M. tuberculosis growth (absorbance);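 0% = vehicle and 100% = reference antibiotic; read after six days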
* marks the source's active call; other numbers are inactive results; ? = inconclusive; / = not tested or not shown.

SMILES	PrP UTR inh	Bead autofluor	Mtb hypoxia inh	Mtb hypoxia inh growth	ugtP null kill	BJeLR viability	RN4220 kill
O=C(CCl)Nc1cccc(Oc2ccccc2)c1	-16.9	4239	12.8	11.6	10.1	0.3	7.0
CC(CN1C(=O)C(=O)NCC1Cc1ccc(O)cc1)NC(=O)Cc1ccccc1 (centres undefined)	/	/	3.5	6.7	-11.6	/	4.4
CC(C)N1CCN(c2ccc(S(=O)(=O)N3CCOCC3)cn2)CC1	0.9	5018	-0.8	2.0	2.3	/	5.0
COc1ccc(C(=O)NNC(=O)c2snnc2C)cc1	-43.8	5363	-1.6	-8.4	5.0	-4.4	2.4
COc1ccc(N2CCN(C(=O)COC(=O)c3oc4ccccc4c3C)CC2)cc1	-34.9	7665	2.6	-6.0	-2.2	/	1.1
CCCCC(C)=NNC(=O)CNS(=O)(=O)c1ccc([N+](=O)[O-])cc1	/	/	3.8	-4.7	-12.8	/	-4.7
Cc1ccc(CNC(=O)CSc2nc(C)cs2)cc1	-18.0	4092	13.8	9.0	9.1	-5.4	5.5
CCOC(=O)C1CCN(c2cc(=O)n(Cc3ccc(F)cc3)c(=O)[nH]2)CC1	-2.0	5866	3.8	2.2	2.2	4.1	9.3
COc1ccc(COC(=O)C2=C(C)NC(=O)NC2c2ccccc2F)cc1 (centres undefined)	-28.3	3467	-0.3	5.0	-3.6	-11.8	1.4
O=C(Nc1nnc(SCc2ccc(F)cc2)s1)C1CC(=O)N(c2ccc3c(c2)OCCO3)C1 (centres undefined)	-1.3	7613	3.1	4.5	-8.3	-14.4	1.9
Cc1ccc(N2C(=O)CC(Sc3ncn[nH]3)C2=O)cc1C (centres undefined)	-32.9	2982	/	/	15.9	-4.6	6.7
O=C(Nc1nnc(-c2cccs2)o1)C1CC1	-5.2	4009	18.2	14.6	1.7	10.4	5.1
O=c1nccc(NN=Cc2ccccc2)[nH]1	/	/	3.2	0.8	6.5	/	5.0
Cc1onc(-c2ccc(Cl)cc2Cl)c1-c1csc(N/N=C/c2ccccc2Cl)n1	-13.1	4143	/	/	/	-5.9	/
Cc1cc(C)c(S(=O)(=O)n2cnc3ccccc32)c(C)c1	-52.4	9959	-3.5	4.1	-1.6	-4.4	2.0
Cc1c(Cl)cccc1NC(=O)Cc1ccc([N+](=O)[O-])cc1	-2.8	2527	2.9	-2.8	3.2	/	4.7
CNC(=O)c1cc2cc(Cc3ccccc3Cl)ccc2oc1=O	-20.6	3326	13.6	-2.6	7.9	-4.1	5.8
Cc1scc(C(=O)N/N=C/c2ccc(OC(C)C)cc2)c1C	-39.0	2319	/	/	/	-5.5	/
O=C(CCS(=O)(=O)c1cccc2nsnc12)NC1CCCCCC1	-26.5	8972	6.3	3.2	3.2	-3.9	3.5
COc1ccc2c(Cl)c(C(=O)NN=Cc3c(C)[nH]c4ccccc34)sc2c1	/	/	12.9	-1.2	3.1	/	-5.3

Whole records, looked up by structure. Order of screens: PrP UTR inh, Bead autofluor, Mtb hypoxia inh, Mtb hypoxia inh growth, ugtP null kill, BJeLR viability, RN4220 kill
COc1ccc(C(=O)NNC(=O)c2snnc2C)cc1 is listed as -43.8, 5363, -1.6, -8.4, 5.0, -4.4, 2.4
CC(CN1C(=O)C(=O)NCC1Cc1ccc(O)cc1)NC(=O)Cc1ccccc1 (centres undefined) is listed as /, /, 3.5, 6.7, -11.6, /, 4.4

Just Mtb hypoxia inh growth and BJeLR viability, for some of the entries so far:
mol | Mtb hypoxia inh growth | BJeLR viability
Cc1ccc(CNC(=O)CSc2nc(C)cs2)cc1 | 9.0 | -5.4
O=c1nccc(NN=Cc2ccccc2)[nH]1 | 0.8 | /

The listing picks up, repeating the 4 entries before the break.
SMILES	PrP UTR inh	Bead autofluor	Mtb hypoxia inh	Mtb hypoxia inh growth	ugtP null kill	BJeLR viability	RN4220 kill
CNC(=O)c1cc2cc(Cc3ccccc3Cl)ccc2oc1=O	-20.6	3326	13.6	-2.6	7.9	-4.1	5.8
Cc1scc(C(=O)N/N=C/c2ccc(OC(C)C)cc2)c1C	-39.0	2319	/	/	/	-5.5	/
O=C(CCS(=O)(=O)c1cccc2nsnc12)NC1CCCCCC1	-26.5	8972	6.3	3.2	3.2	-3.9	3.5
COc1ccc2c(Cl)c(C(=O)NN=Cc3c(C)[nH]c4ccccc34)sc2c1	/	/	12.9	-1.2	3.1	/	-5.3
Cc1cccc(NS(=O)(=O)c2nnc(NC(=O)CC(C)C)s2)c1	-23.2	2973	14.9	5.1	-2.9	-5.8	13.0
c1ccc2c(c1)N1CCCN=C1N2CCN1CCCCC1	-9.4	2561	2.8	-1.4	5.9	-0.1	-0.3
CC(C)CNc1cc(N2CCCC2)ccc1[N+](=O)[O-]	-19.0	8945	5.8	4.1	-4.5	0.8	5.0
COc1ccc(NC(=S)N2CCC(NC(=O)c3ccc(OC)cc3)CC2)cc1	-4.8	6499	2.3	0.2	10.7	-6.2	3.0
Cc1cccc(-c2nc(=S)c3c(o2)CCCC3)c1	-59.0	7893	-0.2	2.3	13.1	-4.6	2.1
CC1(/[N+]([O-])=C/c2ccc(Cl)cc2Cl)CCCCC1=O (centres undefined)	-6.1	?	-3.4	0.0	0.9	-1.8	-4.6
CCCN(Cc1nnc(-c2ccccc2Cl)o1)C(=O)c1cc(S(=O)(=O)N2CCOCC2)ccc1F	-11.5	?	11.5	0.5	1.4	5.9	4.9
CCOc1ccc2nc(NC(=O)CSc3nc(-c4ccccc4)c(C#N)c(=O)[nH]3)sc2c1	-26.7	4289	-16.3	-6.4	-3.7	-3.5	-2.7
NC(=O)c1ccc(NC(=O)CSC2=Nc3ccccc3C3CC=NN23)cc1 (centres undefined)	-13.0	4648	/	/	6.1	-2.1	2.0
COc1ccc(NC(=O)c2cncn2-c2ccccc2)cc1	-2.4	3531	2.2	5.1	5.2	-7.2	3.8
CCCNC(=O)NCCc1ccncc1	-19.9	3769	11.1	9.3	-6.0	-9.8	5.2
CCN(CC)C(=O)N1CCn2c(nc3ccccc32)C1	-7.3	2458	5.2	3.7	1.0	3.2	6.9
C=CCNC(=O)CSc1nnc(-c2ccccn2)n1Cc1ccccc1	-3.6	3460	3.7	12.5	-10.6	-6.0	-0.9
Cc1cc(-c2nnc(-c3cccc(Cl)c3)o2)no1	-77.8	3635	-1.7	-4.0	2.8	1.8	5.0
O=C1c2oc3ccccc3c(=O)c2C(c2cccc(F)c2)N1CCCO (centres undefined)	-34.6	2179	/	/	0.1	12.4	3.1
COc1ccc(C=NNC(=O)CNC(=O)c2ccc3c(c2)OCCO3)cc1OC	/	/	0.0	3.4	-12.8	/	-6.0
CCc1cccc2c(C(=O)CSc3nnc(-c4ccoc4C)n3C)c[nH]c12	-1.1	22498*	1.0	5.0	-6.2	-12.1	0.3
